# From PubChem BioAssay
# PrP 5UTR inh = suppresses PrP 5' UTR mRNA reporter expression; inhibition, % (concentration not given with the values); 0.35% of 340,000 active; cell-based PrP 5' UTR mRNA reporter, plate reader;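 active = every replicate at 50% or more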;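 also: 0 = median of the neutral control wells; tested in H4 reporter cells; numbers are from one replicate; inactives centre near -14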
# ugtP null kill = kills S. aureus RN4220 lacking UgtP. growth inhibition, % (test concentration not listed). AID 1259309. 0.54% of 330,000 active. S. aureus RN4220 ugtP deletion, OD600 growth, 16 h; some inactives read as strong as hits;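 active = z-score under -3 and OD600 up to 0.15 on both plates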;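 also: plate controls were untreated wells for no effect and antibiotic for full effect; wells of about 80 µL received 100 nL stock; the first replicate is given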
# Autofluor counter = compound fluorescence in toxin protease inhibitor counterscreen; compound autofluorescence counterscreen, microsphere flow cytometry; hits give high values; fluorescence intensity (test concentration not listed); 3.1% of 360,000 active; AID 624483;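 active = at least 3 SD above the mean of all compounds, about 16000 in these data; inconclusive = too few beads counted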;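 also: 100 nL of 1 mM stock went into each well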
# Mtb hypoxia inh = inhibitors of hypoxia-regulated fluorescent reporter in Mycobacterium tuberculosis. M. tuberculosis hypoxia-regulated fluorescent reporter, fluorescence. fluorescence inhibition, % (concentration not given with the values). 0.1% of 300,000 active. AID 1159583;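 active = 35 to 45% if threefold the growth effect, above 45% if 1.5-fold the growth effect; inactive = the rest, general growth blockers included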;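 also: wells of about 50 µL received 100 nL stock; 0% = vehicle wells and 100% = reference inhibitor wells; whole bacteria with a GFP reporter of the hypoxia response; strong numbers were not always called active; many hits fall short of the cut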
# Sa RN4220 lethal = kills Staphylococcus aureus RN4220; S. aureus RN4220 growth, OD600, 16 h; inhibition, % (concentration not given with the values); 0.33% of 330,000 active;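 active = z-score of -3 or lower and OD600 up to 0.18 on both plates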;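 also: plate controls were untreated cells for no effect and reference antibiotic for full effect; stock transfer was 100 nL into about 80 µL; one replicate is shown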
# BJeLR lethal = BJeLR cell viability loss; BJeLR (HRASV12) viability, CellTiter-Glo ATP luminescence, 48 h; reference of the scale not given here; inhibition, % (concentration not given with the values); 0.17% of 300,000 active; AID 1554;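 active = replicate mean above 50%; inconclusive = above 50% but judged a plate artefact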;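 also: 50 nL library stock added to about 25 µL; numbers are from one replicate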
# Mtb hypoxia inh growth = second read-out of Mtb hypoxia inh, no call of its own (marks repeat the call); growth inhibition, %; measured here: M. tuberculosis growth (absorbance);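 0% = vehicle and 100% = reference antibiotic; read after six days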
# Starred values were filed as active, the others as inactive; ? = inconclusive; . = not tested or not shown. Not a hit list. Share with any hit: about 4%.
SMILES,PrP 5UTR inh,ugtP null kill,Autofluor counter,Mtb hypoxia inh,Mtb hypoxia inh growth,Sa RN4220 lethal,BJeLR lethal
COc1ccccc1/C=N/NC(=O)c1ccc(CN2C(=O)c3cccc4cccc2c34)cc1,12,.,4380,.,.,.,10
Cc1cc(Cl)ccc1OCC(=O)NNC(=O)CCOc1ccccc1,.,3,5678,2,4,5.6,.
Cc1ccc(S(=O)(=O)NCC(=O)OCN2C(=O)c3ccccc3C2=O)cc1,.,1,.,.,.,1.6,6
CCCS(=O)(=O)c1nc(S(=O)(=O)c2ccc(C)cc2)c(N2CCN(C)CC2)s1,-80,5,3844,5,7,3.7,1
N#C/C(=C(/O)CSc1ncn[nH]1)c1nc2ccccc2[nH]1,-13,20,3739,-1,-4,8.5,-5
C=CCNC(=O)c1ccc(-c2nc(-c3ccc(Cl)cc3Cl)cs2)cc1,-22,1,8615,7,8,-1.1,3
NS(=O)(=O)c1ccc(CCNCc2ccccc2OCc2ccc(Cl)cc2)cc1,-12,-1,3378,11,16,-0.9,9
CC1CCC(NC(=O)c2ccc(NS(=O)(=O)c3ccc4[nH]c(=O)[nH]c4c3)cc2)CC1 (centres undefined),-39,5,6238,10,9,1.3,10
COc1ccccc1C(=O)NC(CCSC)C(=O)NCC(c1ccco1)N(C)C (centres undefined),-17,-5,21152*,4,0,2.1,2
CCN(C(=N)N=C(N)N)c1ccccc1,-15,7,2854,12,8,0.4,-2
CCOc1cccc(-c2c(C(=O)N/N=C/c3ccncc3)nnn2-c2nonc2N)c1,-25,.,4384,.,.,.,-2
CCn1c2ccccc2c2nnc(SCC(=O)NCCOC)nc21,-17,1,10098,2,1,7.2,-4
O=S(=O)(Nc1ccccn1)c1cccc(S(=O)(=O)c2ccc(Cl)cc2)c1,-4,4,4726,-7,2,4.7,15
CCN(CC)S(=O)(=O)c1ccc(Oc2cccc(C(C)=O)c2)nc1,-22,-2,3724,9,7,-1.3,-8
Nc1c(C(=O)OC2CCCCC2)c2nc3ccccc3nc2n1CC1CCCO1 (centres undefined),-7,-3,5154,0,14,4.3,9
CC(=O)Oc1cccc(N2C(=O)C3C4C=CC(C4=C(C)C)C3C2=O)c1 (centres undefined),-22,1,6601,5,8,2.2,-12
CCN1CCN(c2nc3ccccc3nc2C(C#N)S(=O)(=O)c2ccc(C)cc2)CC1 (centres undefined),-25,9,5949,2,6,1.9,-8
O=C(CSc1nc2ccccc2[nH]1)NC1CCCC1,-16,2,3891,4,7,0.3,-15
C=CCC[C@@H](Cc1ccc(F)cc1)C(=O)OC[C@@H](Cc1c[nH]c2ccccc12)NC(=O)[C@@H](CC=C)CC(=O)NCCO,-33,-5,3424,1,5,5.3,.
CCC(=O)N(CCc1ccccc1)Cc1cc2cc(OC)ccc2[nH]c1=O,1,4,4673,6,-1,2.9,6
CCn1c(=O)cc(OCC(=O)Nc2ccc(C)cn2)c2ccccc21,-36,-21,19603*,3,3,10,-2
Cc1ccc2nc(-c3ccc(SCC(=O)N4CCc5ccccc54)nc3)[nH]c2c1,-61,14,2220,2,6,38,13
S=C(NCc1ccccc1)N1CCn2cccc2C1c1ccncc1 (centres undefined),-14,-1,4687,11,6,0.3,3
COc1ccc(SCc2noc(C(=O)NC(C)C)c2C(=O)O)cc1,-3,3,3407,14,10,4.2,10
Cc1ccc(C)c(NC(=O)CSc2cccc3cccnc23)c1,-28,7,3983,10,-3,-1.7,-7

# (cont.)
SMILES,PrP 5UTR inh,ugtP null kill,Autofluor counter,Mtb hypoxia inh,Mtb hypoxia inh growth,Sa RN4220 lethal,BJeLR lethal
CC(=O)Oc1ccc(C(C)=O)c2c1OCCO2,-4,9,8125,0,-5,3.3,-7
CSc1nc2sccc2c(=O)[nH]1,-14,-1,4527,13,9,4.6,6
COc1cc(NC(=O)COC(=O)CCc2cc(OC)c(OC)c(OC)c2)cc(OC)c1,-39,4,4441,-6,-5,4.7,-3
COc1ccc(NC(=O)CC23CC4CC(CC(C4)C2)C3)cn1,-12,10,3919,-1,6,1.8,-3
CCOc1cc2[nH]c(=O)n(Cc3ccc(C(=O)NCCOC)cc3)c(=O)c2cc1OCC,-32,-3,4114,0,6,5.5,2
COC(=O)c1cc(C(=O)NCCCN2CCOCC2)cc([N+](=O)[O-])c1,-1,4,2725,-6,-6,4.7,-3
Cc1cc(C)n2nc(SCC(=O)Nc3ccc(S(=O)(=O)N(C)C)cc3)nc2n1,-12,5,.,13,6,5.1,.
CCO[C@H]1OC(C(=O)N2CCN(Cc3ccc4c(c3)OCO4)CC2)=C[C@@H](C2CCCCC2)[C@@H]1CCCO,-19,.,2856,.,.,.,4
O=C1N[C@@H](Cc2cn(S(=O)(=O)c3ccc([N+](=O)[O-])cc3)c3ccccc23)C(=O)N[C@H]1Cc1ccccc1,-13,.,2944,.,.,.,12
COc1cc(OC)cc(-c2nc(-c3cc4cc(C)ccc4nc3OC)no2)c1,-10,3,4354,1,3,-1.3,4
Cc1cc(C)c2c(N=NN(C)C)[nH]nc2n1,-17,21,3474,.,.,17,-4
O=C(CN1C(=O)COc2ccccc21)N1CCOCC1,8,-1,5991,-16,-4,-0.7,7
Cc1ccc(C2CC2C(=O)NNC(=S)Nc2cccc(Cl)c2)cc1 (centres undefined),-20,-8,20873*,4,7,-6.5,-1
Cc1cc(C)n(CC(C)NCc2cn[nH]c2-c2cccc3ccccc23)n1 (centres undefined),-27,7,4538,14,10,3.6,12
O=C(C1CCCN(S(=O)(=O)c2cccc3cccnc23)C1)N1CCc2ccccc21 (centres undefined),2,-6,5952,.,.,0.1,-14
Cc1ccc2c(n1)sc1c(N)ncnc12,5,11,2204,.,.,-0.9,10
COc1ccccc1N1CCN(C(=O)c2ccccc2SCC(=O)NCc2ccco2)CC1,-22,7,?,3,-4,1.1,.
Cc1ccc(NC(=O)CSc2nnc(CN3CCOCC3)n2-c2ccccc2)cc1,-18,-2,3655,-5,-4,-0.3,3
CCc1ccc(OCC(=O)NC(C)C)cc1,-16,3,4064,6,-1,6.6,-3
Cc1ccccc1CN1C2c3ccccc3CC2OCCS1(=O)=O (centres undefined),.,12,.,12,2,13,.
O=C(OCN1C(=O)C(=O)c2ccccc21)c1ccc(Cl)cc1,-9,2,4238,-6,15,5.8,-1
COc1c(C)cc(C(=O)C2CCCN(C(=O)c3ccoc3)C2)cc1C (centres undefined),-5,6,3798,9,22,7.0,3
COc1ccc(S(=O)(=O)N2CCC(C(=O)NCC(=O)Nc3c(C)cccc3C)CC2)cc1OC,8,-3,4452,1,-4,1.4,.
CSc1nc(C)cc(Oc2ccc(OCC(N)=O)nn2)n1,-25,8,4355,3,-4,1.1,-4
O=C(Nc1nc2ccc([N+](=O)[O-])cc2s1)c1c(F)cccc1F,-14,1,3648,-4,0,12,7

# (continued)
SMILES,PrP 5UTR inh,ugtP null kill,Autofluor counter,Mtb hypoxia inh,Mtb hypoxia inh growth,Sa RN4220 lethal,BJeLR lethal
CC(=O)c1c(C)[nH]c(C(=O)CSc2nc3ccccc3c(=O)n2CCCN2CCOCC2)c1C,-13,-6,8820,7,12,2.3,0
CCOC(=O)Cc1cc(=O)n2[nH]cc(-c3cccc(Br)c3)c2n1,1,18,4411,-4,0,32,7
COc1ccc(C(CNC(=O)c2ccc(OC)c(S(=O)(=O)N3CCCC3)c2)N2CCCC2)cc1 (centres undefined),-3,1,21380*,-4,-1,-9.6,.
CCOC(=O)C1C(=O)C=C(c2ccc(C)cc2)CC1c1ccco1 (centres undefined),-28,12,8887,10,2,4.3,0
COc1ccc(NC(=O)c2ccccc2SC)c(OC)c1,-3,4,3872,10,9,-1.6,-2
C=CCn1c(CSCc2ccc(C)cc2)nnc1SCC(=O)NCc1ccccc1,-2,-5,3159,7,8,13,13
Cc1ccc(C2CC(c3cccs3)=NN2C(=O)c2ccc(Br)o2)cc1 (centres undefined),-6,-19,2766,.,.,-3.5,-5
NC(=O)c1ccc(NC(=O)COC(=O)c2ccc(Br)c(S(=O)(=O)N3CCOCC3)c2)cc1,9,-4,?,3,7,1.9,.
CC(=O)c1c(C)[nH]c(C(=O)OCC(=O)Nc2ccc([N+](=O)[O-])cc2Cl)c1C,-33,0,2746,6,7,-1.2,6
CC(O)(CS(=O)(=O)Cc1ccccc1Cl)C(=O)Nc1cccc(C(F)(F)F)c1 (centres undefined),-28,-8,10797,5,13,2.4,4
CCCCCCCCCOC(=O)C(CC(=O)O)N1CCOCC1 (centres undefined),-26,-6,2914,.,.,12,-3
CCc1noc(C)c1C(=O)NNC(=O)c1ccccc1F,-11,4,5074,11,3,4.2,-11
CCOC(=O)c1sc(C)c2c1NC(C)(c1ccccc1)NC2=O (centres undefined),-14,-2,2286,.,.,9.4,-8
CCOc1ccc(NC(=O)c2cc([N+](=O)[O-])ccc2N2CCOCC2)cc1,11,.,3391,.,.,.,10
O=c1cnc2ccccc2n1CC1CCCCC1,-6,2,9893,2,1,3.8,-2
COc1ccc(C2CC(c3ccc(Cl)cc3Cl)Nc3nc(N)nn32)cc1OC (centres undefined),-24,11,5765,.,.,4.9,-10
Cc1ccc(C(C(=O)NC2CCCC2)N(Cc2ccco2)C(=O)CCC(=O)Nc2cc(C)on2)cc1 (centres undefined),-13,5,2419,.,.,-2.1,-4
N=C1C(c2nc(-c3ccc(Cl)cc3)cs2)=C(O)CN1CCCN1CCOCC1,-13,6,3177,.,.,-11,4
CCN(CC)CCOC(=O)C12CC3CC(CC(C3)C1)C2,-36,7,2393,.,.,8.8,-9
Cc1nc(SC(C)C(=O)NCC2CCCO2)c2cc(-c3ccccc3)sc2n1 (centres undefined),18,1,5245,-2,8,5.2,32
CN(C)/C=C/C(=O)c1ccc(Oc2ncccn2)cc1,-23,-1,4439,15,2,2.0,5
CC(NC(=O)c1nc[nH]c1C(=O)NCc1ccccc1)C(=O)OCc1ccccc1 (centres undefined),.,-1,.,7,12,7.7,.
CCOc1c(Cl)cc(C2NC(=O)NC(C)=C2C(=O)NCc2ccccc2)cc1OC (centres undefined),-40,2,10983,1,7,1.4,0
O=C(COC(=O)C1CCN(S(=O)(=O)c2ccccc2)CC1)NC(=O)c1ccc(OC(F)F)cc1,-11,-3,1973,7,7,2.6,-6
CCN(CC(=O)NC1CCS(=O)(=O)C1)C(C)C(=O)Nc1ccc(F)cc1 (centres undefined),-3,-3,3915,-13,3,-2.8,.

# Later entries:
SMILES,PrP 5UTR inh,ugtP null kill,Autofluor counter,Mtb hypoxia inh,Mtb hypoxia inh growth,Sa RN4220 lethal,BJeLR lethal
Cc1[nH]c2ccccc2c1C(=O)NS(=O)(=O)Nc1ccccc1,-9,2,4371,-7,3,1.7,.
CCN(c1ccccc1)S(=O)(=O)c1ccc(Oc2ccc(C(C)=O)cc2OC)nc1,.,-2,5483,11,2,12,.
Clc1ccc(OCCSc2ncccn2)c2ccccc12,-30,96*,15967,10,9,1.6,-4
CC(NC(=O)CNC(=O)Cc1cccc2ccccc12)c1ccc(S(N)(=O)=O)cc1 (centres undefined),-16,1,6123,3,4,2.3,-3
CN(CC(=O)NCc1ccccc1Cl)CC(=O)Nc1cccc(F)c1,8,1,4249,-11,-3,-1.7,3
O=C(CCCc1c[nH]c2ccccc12)N1CCOCC1,-22,-3,4936,.,.,-4.5,-3
COC(=O)CC1=NN(c2nc3ccccc3s2)C(=O)/C1=C/N(C)C,-33,5,3021,5,0,0.7,4

# Taken from above:
# Autofluor counter, CCN(c1ccccc1)S(=O)(=O)c1ccc(Oc2ccc(C(C)=O)cc2OC)nc1 reads 5483
# Mtb hypoxia inh growth, Clc1ccc(OCCSc2ncccn2)c2ccccc12 reads 9

# Random excerpt: 6 compounds from above
SMILES,PrP 5UTR inh,ugtP null kill,Autofluor counter,Mtb hypoxia inh,Mtb hypoxia inh growth,Sa RN4220 lethal,BJeLR lethal
Clc1ccc(OCCSc2ncccn2)c2ccccc12,-30,96*,15967,10,9,1.6,-4
CN(CC(=O)NCc1ccccc1Cl)CC(=O)Nc1cccc(F)c1,8,1,4249,-11,-3,-1.7,3
CC(NC(=O)CNC(=O)Cc1cccc2ccccc12)c1ccc(S(N)(=O)=O)cc1 (centres undefined),-16,1,6123,3,4,2.3,-3
O=C(CCCc1c[nH]c2ccccc12)N1CCOCC1,-22,-3,4936,.,.,-4.5,-3
CCN(c1ccccc1)S(=O)(=O)c1ccc(Oc2ccc(C(C)=O)cc2OC)nc1,.,-2,5483,11,2,12,.
Cc1[nH]c2ccccc2c1C(=O)NS(=O)(=O)Nc1ccccc1,-9,2,4371,-7,3,1.7,.
